# VDR inhibitor: Inhibitors of the vitamin D receptor (VDR): qHTS; Vitamin D3 receptor (Homo sapiens), P11473; VDR-SRC2-3 peptide fluorescence polarization, 2 h; Potency, µM, inactives show max response, negative = inhibition, hits mostly inhibitors; actives 0.93% (n = 400,000); active means well fitted inhibition curve with a large enough effect; inconclusive means small, poorly fitted or top-dose-only effect, or another doubt; inactive means no such curve, though single readings can be large or run the other way; further: series mostly up to about 120 µM
# Target sequence (P11473 whole entry, looked up): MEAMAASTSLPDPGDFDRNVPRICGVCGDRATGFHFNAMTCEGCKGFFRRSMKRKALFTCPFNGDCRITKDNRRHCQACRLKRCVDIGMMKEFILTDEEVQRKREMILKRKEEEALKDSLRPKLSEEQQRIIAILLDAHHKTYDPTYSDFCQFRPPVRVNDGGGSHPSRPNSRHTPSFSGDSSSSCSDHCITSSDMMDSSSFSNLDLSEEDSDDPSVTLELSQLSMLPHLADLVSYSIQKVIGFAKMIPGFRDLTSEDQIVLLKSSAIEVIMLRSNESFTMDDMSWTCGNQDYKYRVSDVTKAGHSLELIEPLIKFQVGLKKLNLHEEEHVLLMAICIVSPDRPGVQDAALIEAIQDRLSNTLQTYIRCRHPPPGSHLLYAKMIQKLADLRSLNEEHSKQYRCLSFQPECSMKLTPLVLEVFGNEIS
#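 Fluorescence polarization assay of small-molecule disruption of VDR binding to coregulator peptide SRC2-3. Compounds and controls pin-transferred, then read after 2 h incubation at ambient room temperature.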
# The depositor's hits bear a star; ? = inconclusive; [ ] = dose if it differs, or a comment. On the % scale 0 is the no-effect control and ±100 the full control effect; potency means the concentration at half of the fitted maximal effect. This is a subset (hit frequency here may not be typical).
compound	VDR inhibitor
Cc1cccc(C)c1OC(=O)CSc1nnc(CNC(=O)c2ccccc2)o1	12%
O=C(NCc1ccccc1)C1CCN(S(=O)(=O)N2CCOCC2)CC1	13%
Cc1occc1C(=O)NNC(=S)Nc1ccccc1C(F)(F)F	?
COc1ccc(C2C3=C(CC(C)(C)CC3=O)Nc3c2c(=O)[nH]c(=O)n3Cc2ccccc2)cc1 (centres undefined)	12%
CC(C)CNS(=O)(=O)c1ccc(CCC(=O)N2CCN(c3ccc(F)cc3)CC2)cc1	4%
c1ccc(C[C@H]2CNCCN2CC2(c3ccccc3)CC2)cc1	-17%
CC[C@]12c3[nH]c4cc(CCC(=O)N(C)C)ccc4c3CCN1C(=O)[C@@H](CC(=O)NCC13CC4CC(CC(C4)C1)C3)C[C@@H]2C(=O)N1CCN(C(=O)C2CC2)CC1	-1%
Cc1noc(C)c1C(=O)N1CCC2(CC1)CN(c1ccccn1)C2	-2%
O=c1[nH]c2ccc(NCc3ccc(-c4ccccc4F)o3)cc2[nH]1	12%
CC1CCCCN1CCCNC(=O)c1ccc(N2CCCC2=O)cc1 (centres undefined)	5%
O=C1NCCCN1Cc1ccc(F)cc1Cl	-1%
COc1ccc(-c2cnnc(N/N=C/c3ccc(-c4ccc([N+](=O)[O-])cc4)o3)n2)cc1	-9%
CC(=O)Nc1ccc(NC(=O)C(=O)c2cn(CC(=O)N3CCCCC3)c3ccccc23)cc1	-13%
CCOc1ccccc1N1C(=O)CC(Sc2n[nH]c(-c3ccccc3)n2)C1=O (centres undefined)	-11%
COC(=O)c1nc(-c2ccccc2)nc(-c2ccccc2)c1C(=O)OC	-8%
O=C(NC(=S)Nc1nc(-c2ccccc2)cs1)c1ccco1	11%
CC1(C)CC(=O)C(Sc2nnc(-c3ccc(O)cc3)n2CC2CCCO2)C(=O)C1 (centres undefined)	0%
Cc1cc(C)n(-c2cc(N3CCOCC3)ncn2)n1	-8%
COC(=O)c1ccccc1-c1ccc(C=O)o1	3%
Cc1ccccc1C(=O)N1CCN(S(=O)(=O)c2cccs2)CC1	-11%
O=C(NCc1ccccc1Br)c1cnc2sc(N3CCCCCC3)nn2c1=O	16%
O=C(c1ccc(S(=O)(=O)NCc2ccco2)cc1)N1CCN(c2ccc(F)cc2)CC1	13%
Cc1ccc(C)c(NC(=O)C(OC(=O)c2ccc(NC(=O)CC#N)cc2)c2ccccc2)c1 (centres undefined)	1%
CSCCC(NC(=O)c1ccco1)C(=O)N1CCN(c2ccccc2O)CC1 (centres undefined)	-1%

# Four entries from above, reformatted.
O=C(c1ccc(S(=O)(=O)NCc2ccco2)cc1)N1CCN(c2ccc(F)cc2)CC1
- VDR inhibitor = 13%
Cc1ccccc1C(=O)N1CCN(S(=O)(=O)c2cccs2)CC1
- VDR inhibitor = -11%
Cc1cc(C)n(-c2cc(N3CCOCC3)ncn2)n1
- VDR inhibitor = -8%
Cc1ccc(C)c(NC(=O)C(OC(=O)c2ccc(NC(=O)CC#N)cc2)c2ccccc2)c1 (centres undefined)
- VDR inhibitor = 1%

# Remaining list, next part
compound	VDR inhibitor
O=C(/C=C(\O)c1ccccc1)C(=O)NNC(=O)c1ccccc1	-11%
Cc1ccc(C)c(NC(=O)CSc2nc3nc(-c4cccs4)cc(C(F)(F)F)c3c(=O)[nH]2)c1	-11%
CCN(C(=O)COC(=O)c1cccnc1SC)C1CCS(=O)(=O)C1 (centres undefined)	0%
COC(=O)[C@@H](NC(=O)N1CCN(c2cccc(C(F)(F)F)c2)CC1)C(C)C	0%
CCN(c1ccc(OC)cc1)S(=O)(=O)c1cc(-c2cc(C)no2)ccc1OC	6%
CCn1c2ccccc2c2nnc(SCC(=O)c3c(N)n(C)c(=O)n(C)c3=O)nc21	-3%
CC(C)(C)c1nc2ccc([N+](=O)[O-])cc2[nH]1	-4%
O=C(Nc1cc(C(F)(F)F)ccc1N1CCOCC1)C1=NN(c2ccccc2)C(=O)CC1	-5%
O=C(Nc1ccc(N2CCN(C(=O)C3CC3)CC2)cc1)c1cccs1	9%
COc1ccc(-c2nc(-c3ccccn3)nc(N3CCN(C)CC3)c2C#N)cc1	-10%
Cc1n[nH]c(C)c1CCc1nc2c3ccccc3nc(SCC(=O)Nc3ccccc3F)n2n1	8%
COc1ccc(N2CC(NC(=O)CCc3ccccc3)CC2=O)cc1OC (centres undefined)	4%
CC(=O)Nc1ccc(S(=O)(=O)CCC(=O)O)cc1	13%
COc1ccc(Cc2nnc(NCCO)[nH]c2=O)cc1OC	?
CCOc1ccccc1NC(=O)c1ccccc1NS(C)(=O)=O	0%
Cc1ccccc1C1c2[nH]c3ccccc3c2CCN1Cc1cccn1-c1ncccn1 (centres undefined)	3%
CCOc1ccc(Cl)cc1S(=O)(=O)n1cnc2ccccc21	-16%
CC1C(=O)Nc2ccc(S(=O)(=O)N3CCc4ccccc4C3)cc2NC1=O (centres undefined)	-22%
Cc1ccc2c(c1)nnn2C1CCN(S(=O)(=O)c2ccc(C(=O)N(C)C)cc2)CC1	-6%
COc1ccc(OC)c(NC(=O)Nc2ccc3c(c2)OCO3)c1	0%
Cc1ccc(C)c(NC(=O)CN(C)C(=O)c2ccc(-n3cncn3)c([N+](=O)[O-])c2)c1	-10%
CCn1c(N2CCC(Cc3ccccc3)CC2)nc2c1c(=O)[nH]c(=O)n2C	-12%
COCc1cc(=O)n2c(-c3ccc(C)cc3)n[nH]c2n1	-8%
O=C(Nc1ccc(Br)cn1)c1cccc2ccccc12	6%
COc1ccc(NC(=O)C2CCCN2C(=O)NCc2ccccc2)cc1OC (centres undefined)	15%
C[C@H](CO)N1C[C@H](C)[C@@H](CN(C)C(=O)Nc2ccccc2)Oc2ccc(NC(=O)c3ccncc3)cc2C1=O	10%
CC1CCCCN1C(=O)Cn1cc(C=O)c2ccccc21 (centres undefined)	18%
O=C(CN1CCSC1=O)N1CCN(S(=O)(=O)c2ccccc2)CC1	28%
Cc1ccc(S(=O)(=O)N2CCOC23CCN(C(=O)c2ccccc2Br)CC3)cc1	-16%
O=C(O)c1sccc1SCc1ccc(Cl)cc1Cl	-23%
CCOC(=O)CSc1nc2cc(C(F)(F)F)cnc2n1C	-11%
CN(Cc1cc(-c2ccccc2)on1)C(=O)c1cc(COc2c(F)cccc2F)on1	-7%
CCOc1ccc2c(c1)NC(c1ccc(OCC)c(OCC)c1)=NC(c1ccc(F)cc1)=N2	5%
CC(C)(C)NC(=O)CN(Cc1cccs1)C(=O)CNS(=O)(=O)c1ccc(F)cc1	10%
Cc1ccc(CNC(=O)[C@@H]2CCC(=O)N2Cc2ccco2)cc1	3%
COc1cc(C(=O)NCCOc2ccccc2)c(Br)c(OC)c1OC	3%
CC(=O)CCC(=O)c1ccc2ccccc2c1	-16%
CC1CCN(C(=O)c2cc(-c3ccco3)on2)CC1	7%
Cc1ccc(OCC(=O)NCCCNC(=O)c2ccccn2)cc1	1%
CCOP(=O)(c1ccccc1)c1nc(-c2ccccc2C)oc1NCc1ccccc1 (centres undefined)	-29%
O=C(c1ccc(Cl)s1)N1CCN(c2ncccn2)CC1	-8%
CCOC(=O)c1cc(-c2ccccc2)n(CCCC(=O)Nc2ccc(C)c(Cl)c2)c1C	7%
O=C(Nc1sc2c(c1C(=O)c1ccc(Cl)cc1)CCCC2)c1cccnc1	9%
CC(C)(C)OC(=O)NCCCCCc1cn(CC(=O)NCCCCCCCCCCC(=O)N2CCN(C(=O)OC(C)(C)C)CC2)nn1	-5%
CCOC(=O)c1c(C)[nH]c(O)c1C=Nc1ccc(Cl)cc1	-11%
CCN1C(=O)CC(C(C)C)N(C2CCCC2)c2nc(Nc3ccc(C(=O)NC4CCN(C)CC4)cc3OC)ncc21 (centres undefined)	5%
C=CCN=C(C)C1=C(O)CCC1=O	1%
COc1ccc(OCCOC(=O)c2ccc(F)c(S(=O)(=O)N3CCOCC3)c2)cc1	-11%
CC1CCN(C(=O)c2ccc(NS(=O)(=O)c3cccc4cccnc34)cc2)CC1	0%
CCOc1ccccc1OCCCNCc1ccco1	-12%
CN(CCOc1ccc(Cl)cc1)C(=O)CN1C(=O)NC2(CCCC2)C1=O	9%
CCCCn1c(SCc2nc(N)nc(N3CCCCC3)n2)nc2c1c(=O)n(C)c(=O)n2C	25%
COc1ccc(N2C(=O)CCC(C(=O)N(C)CCc3ccccn3)C2c2ccc(OC)c(OC)c2)cc1 (centres undefined)	-7%
O=C(Nc1nnc(S(=O)(=O)N2CCc3ccccc32)s1)c1cccc(Cl)c1	13%
CC(=O)c1ccc(N(CC(=O)NC2CCCC2)C(=O)CNC(=O)c2ccco2)cc1	17%
CCN1CCc2c(C#N)c(N3CCOCC3)nc(NCc3ccccc3)c2C1	-19%

# (next part)
compound	VDR inhibitor
O=C(CSc1nc2c([nH]c3ccccc32)c(=O)n1-c1cccc(Cl)c1)N1CCc2ccccc21	14%
CCOC(=O)C1CCN(C(=O)c2[nH]c3ccc(OC)cc3c2C)CC1	0%
CCOc1ccc(C2/C(=C(\O)c3ccc4c(c3)OCCO4)C(=O)C(=O)N2CCCn2ccnc2)cc1OC (centres undefined)	-19%
Cc1ccccc1NC(=O)CSc1nc(-c2ccccc2)cn1-c1ccccc1F	1%
CC1=C(C(=O)OCC(Br)(Br)Br)C(c2cccc([N+](=O)[O-])c2)NC(=O)N1CCCC(=O)O (centres undefined)	-16%
Cc1[nH]c2ccc(C(=O)N3CCN(c4ccc(F)cc4)CC3)cc2c1C	0%
Cc1cc(F)ccc1S(=O)(=O)Nc1ccccc1C(=O)NCc1ccccn1	0%
Cn1c(SCC(=O)NC2CCCCC2)nnc1-c1cccc(N)c1	-2%
Cc1ccc(SCCN2CCC(NC(=O)OCc3ccccc3)CCC2=O)cc1 (centres undefined)	-11%
O=C(NC1CCCC1)C1CCN(S(=O)(=O)N2CCCCC2)CC1	10%
COc1cccc(C(=O)Nc2ccc3nc(N4CCC(C)CC4)cc(C)c3c2)c1	-10%
COc1cccc(NC(=O)Cc2cn(C)c3ccccc23)c1	6%
CC1CCCCN1S(=O)(=O)c1ccc2[nH]c(=O)cc(C(=O)NCCCN3CCCCCC3)c2c1 (centres undefined)	-13%
CN(C)c1ccc(-c2nnc(-c3cccnc3)o2)cc1	29%
O=C(CN1CCN(c2ccccc2)CC1)Nc1ccncc1	-18%
COc1cc(NC(=O)COC(=O)CCCC2=NS(=O)(=O)c3ccccc3N2)cc(OC)c1	-19%

# Ordered by the number under VDR inhibitor (smallest number first): 3 from the list above
compound	VDR inhibitor
CCn1c2ccccc2c2nnc(SCC(=O)c3c(N)n(C)c(=O)n(C)c3=O)nc21	-3%
COc1cc(C(=O)NCCOc2ccccc2)c(Br)c(OC)c1OC	3%
O=C(Nc1ccc(Br)cn1)c1cccc2ccccc12	6%

# (list continues)
compound	VDR inhibitor
COc1ccc(-c2noc(CSc3nc(N)c(-c4ccccc4)c(=O)[nH]3)n2)cc1	46%[activator]
Cc1ccnc(NC(=O)c2cccc(S(=O)(=O)N3CCN(c4ccc(F)cc4)CC3)c2)c1	-2%
Cc1c(Br)cc(C(=O)N2CCCCCC2)c(C)c1C	-2%
O=C(c1ccccc1Cl)N(Cc1ccco1)c1ccccn1	6%
Cc1cccc(CC(=O)Nc2cccc(-c3nc4cccnc4s3)c2)c1	1%
CN1CCN(c2ccc([N+](=O)[O-])cc2C(=O)c2ccccc2)CC1	-7%
O=C(/C=C/c1ccccc1)N1CCC(N2CCC(C(=O)N3CCOCC3)CC2)CC1	1%
O=C(Nc1ccc(Br)cc1)c1ccc(F)c(S(=O)(=O)NC2CCCCCC2)c1	4%
Cc1ccccc1NC1=NC(C)(C)N=C(N)N1	-4%
CC1(C)CC(=O)C(C=Nc2ccc(O)cc2)=C(O)C1	-6%
O=C(NC1CCCCCC1)c1c(F)c(F)c(F)c(F)c1F	0%
Nn1cnc2c(c1=O)C1(CCCCC1)Cc1ccccc1-2	-3%
Cc1cccc(C)c1NC(=O)C(NC(=O)c1ccccn1)c1ccc([N+](=O)[O-])cc1 (centres undefined)	0%
CCOC(=O)c1ccc(N/C(=N\S(=O)(=O)c2ccccc2C)c2ccccc2)cc1	15%
Cc1ccc(S(=O)(=O)Nc2ccc3c(c2)C(=O)N([C@H](C)CO)C[C@H](C)[C@@H](CN(C)Cc2ccccc2)O3)cc1	-8%
[O-][N+]12CCCCC1CCCC2CO (centres undefined)	-17%

# Entries from the list above that contain a cyano group, in the order listed:
compound	VDR inhibitor
Cc1ccc(C)c(NC(=O)C(OC(=O)c2ccc(NC(=O)CC#N)cc2)c2ccccc2)c1 (centres undefined)	1%
COc1ccc(-c2nc(-c3ccccn3)nc(N3CCN(C)CC3)c2C#N)cc1	-10%
CCN1CCc2c(C#N)c(N3CCOCC3)nc(NCc3ccccc3)c2C1	-19%

# Continued.
compound	VDR inhibitor
CC(=O)c1cccc(NC(=O)COC(=O)C2CCCN2C(=O)c2cccs2)c1 (centres undefined)	7%
CSc1ccc(COC(=O)CCS(=O)(=O)c2ccc(C)cc2)cc1	-17%
COc1ccc(N2CCN(C(=O)CCS(=O)(=O)c3ccc4c(c3)CCN4C(=O)C3CC3)CC2)cc1	30%[activator]
O=C(Nc1nnc(-c2ccco2)o1)c1cccc(N2C(=O)CCC2=O)c1	-8%
O=C1C2CC=C(Cl)CC2C(=O)N1CCC[n+]1cccc2ccccc21 (centres undefined)	15%
CCC(=O)NCCCc1nc(-c2ccccc2)no1	-20%
CC(=O)N1c2ccccc2C2CCCC[C@H]21 (some centres undefined)	-3%
